NOMO-1 viab: STK33 inhibitor candidate reducing NOMO-1 cell viability | AID 2330 | inhibition, % (concentration not given with the values) | 7.5% of 37,000 active | NOMO-1 AML viability, CellTiter-Glo luminescence, 72 h;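 active = most replicates above 80%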;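 also: wells of about 30 µL received 25 nL stock; 0% = median of vehicle wells and 100% = reference inhibitor level; the first replicate is given; inactives centre near 10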
The depositor's hits bear a star. The list is partial; count on the stated rates, not on these rows.

SMILES	NOMO-1 viab
Cc1sc2ncnc(SCC(=O)Nc3cc(C(F)(F)F)ccc3Cl)c2c1C	70
O=C(CSc1nnc(-c2ccc(Br)cc2)o1)Nc1cccc(C(=O)O)c1	9
C[C@H]1CN([C@@H](C)CO)C(=O)c2cc(NC(=O)Nc3ccc4c(c3)OCO4)ccc2O[C@@H]1CN(C)Cc1ccc(Oc2ccccc2)cc1	102*
C[C@@H]1CN([C@H](C)CO)C(=O)Cc2cc(NS(=O)(=O)c3cccs3)ccc2O[C@@H]1CN(C)C(=O)Nc1cccc2ccccc12	9
O=C1/C(=C/c2ccco2)N=C(c2ccccc2)N1/N=C/c1ccc(F)cc1	27
C[C@H]1CN([C@@H](C)CO)C(=O)c2cc(NC(=O)Nc3ccc4c(c3)OCO4)ccc2O[C@H]1CN(C)Cc1ccncc1	95*
C[C@H]1CN([C@@H](C)CO)C(=O)c2cccc(NC(=O)Nc3ccc4c(c3)OCO4)c2O[C@@H]1CN(C)C(=O)Nc1cccc2ccccc12	-1
CC(C)=CCc1cc(O[C@@H]2O[C@H](CO)[C@@H](O)[C@H](O)[C@H]2O)cc(CC=C(C)C)c1C(O)C(=O)O (stereo partly specified)	1
COc1ccc(S(=O)(=O)Nc2ccc3c(c2)CC(=O)N([C@@H](C)CO)C[C@H](C)[C@H](CN(C)Cc2ccc(Cl)c(Cl)c2)O3)cc1	105*
O=C(CSc1nnc(-c2ccncc2)n1-c1ccccc1)c1ccc(Br)cc1	4

Random excerpt: two entries already listed, in no set order.
SMILES	NOMO-1 viab
Cc1sc2ncnc(SCC(=O)Nc3cc(C(F)(F)F)ccc3Cl)c2c1C	70
O=C1/C(=C/c2ccco2)N=C(c2ccccc2)N1/N=C/c1ccc(F)cc1	27

(further entries)
SMILES	NOMO-1 viab
COc1ccc(NC(=O)N(C)C[C@H]2Oc3ccc(NC(=O)NC4CCCCC4)cc3CC(=O)N([C@@H](C)CO)C[C@H]2C)cc1	-17
Cc1ccc(NC(=O)CSc2nc(C)cc(-c3ccccc3)n2)cc1	26
COc1ccc(NC(=O)Cn2cnc3sc4c(c3c2=O)CCC(C)C4)c([N+](=O)[O-])c1 (stereo unspecified)	-14
COC(=O)c1ccc(NC(=O)CSc2nnc(-c3ccccc3)n2-c2ccccc2)cc1	29
C[C@@H]1CCCCO[C@H](CN(C)C(=O)Nc2ccc(F)cc2)[C@@H](C)CN([C@H](C)CO)C(=O)c2cc(NS(=O)(=O)c3ccccc3)ccc2O1	56
CCOc1ccccc1NC(=O)CSc1nc(N)cc(=O)[nH]1	36
Cc1cc(C(=O)O)ccc1NC(=O)CNC(=O)C1CCCCC1	1
CC(C)NC(=O)Nc1ccc2c(c1)CC(=O)N([C@@H](C)CO)C[C@@H](C)[C@@H](CN(C)S(=O)(=O)c1cn(C)cn1)O2	35
C[C@@H]1CN([C@H](C)CO)C(=O)c2cccc(NC(=O)Nc3ccc4c(c3)OCO4)c2O[C@@H]1CN(C)CC1CCCCC1	23
C[C@@H]1CN([C@H](C)CO)C(=O)Cc2cc(NC(=O)NC3CCCCC3)ccc2O[C@@H]1CN(C)Cc1ccc(C(F)(F)F)cc1	109*
C[C@@H]1CN([C@H](C)CO)C(=O)c2cc(NS(=O)(=O)c3cn(C)cn3)ccc2O[C@@H]1CN(C)C(=O)Nc1ccc2c(c1)OCO2	11
C[C@H]1CN([C@@H](C)CO)C(=O)Cc2cc(NC(=O)C3CCCCC3)ccc2O[C@@H]1CN(C)S(=O)(=O)c1cccs1	-2
CCc1ccc(-c2cn3c4ccccc4nc3n2CCN2CCOCC2)cc1	36
C[C@H](CO)N1C[C@H](C)[C@H](CN(C)S(=O)(=O)c2ccc(Cl)cc2)Oc2c(NC(=O)c3nc4ccccc4s3)cccc2C1=O	93*
Cc1ccc(-c2cc(C(F)F)n3ncc(C(=O)N4CCCCC4c4cccnc4)c3n2)cc1 (stereo unspecified)	54
CCc1ccc(OCC(=O)Nc2ccccc2C(N)=O)c(Br)c1	-4
COc1ccc(NC(=O)Nc2ccc3c(c2)C(=O)N([C@H](C)CO)C[C@@H](C)[C@@H](CN(C)C(=O)Nc2cccc4ccccc24)O3)cc1	63
CNC[C@H]1Oc2ccc(NC(=O)C3CCCCC3)cc2C(=O)N([C@H](C)CO)C[C@@H]1C	1
COc1ccc(NC(=O)Nc2cccc3c2O[C@@H](CN(C)S(=O)(=O)c2ccc(OC)cc2)[C@H](C)CN([C@H](C)CO)C3=O)cc1	16
C[C@@H]1CN([C@@H](C)CO)C(=O)c2cc(NC(=O)CCC(F)(F)F)ccc2O[C@@H]1CN(C)Cc1ccc(Oc2ccccc2)cc1	66
C[C@@H]1CCCCO[C@H](CN(C)C(=O)Cc2ccccc2)[C@@H](C)CN([C@H](C)CO)C(=O)c2cc(NC(=O)Cc3ccccc3)ccc2O1	36
CNC[C@H]1Oc2ccc(NC(=O)Nc3ccccc3)cc2C(=O)N([C@@H](C)CO)C[C@H]1C	7
Cc1cc(-c2ccccc2)nc(SCC(=O)Nc2cccc(C(F)(F)F)c2)n1	-8
Cc1noc(C)c1S(=O)(=O)Nc1ccc2c(c1)CC(=O)N([C@@H](C)CO)C[C@H](C)[C@@H](CN(C)CC1CC1)O2	-11
CCOc1ccc(S(=O)(=O)NCc2ccccc2)cc1-c1nc2c(C(C)(C)C)nn(C)c2c(=O)[nH]1	127*
C[C@@H]1CN([C@@H](C)CO)C(=O)c2cccc(NC(=O)Nc3ccc(C(F)(F)F)cc3)c2O[C@@H]1CN(C)Cc1ccc2c(c1)OCO2	106*
O=C(CSc1nnc(-c2cccs2)n1-c1ccccc1)N1CCCc2ccccc21	45
CC(=O)Oc1cc2c(C(=O)N3CCCC3)c(C)oc2c2ccccc12	-6
O=C(O)C(Cc1ccsc1)c1ccccc1 (stereo unspecified)	-10
C[C@H](CO)N1C[C@H](C)[C@@H](CN(C)S(C)(=O)=O)Oc2ccc(NC(=O)Nc3ccccc3)cc2C1=O	-10
C[C@@H]1CN([C@H](C)CO)C(=O)Cc2cc(NS(=O)(=O)c3cccs3)ccc2O[C@@H]1CN(C)Cc1ccc(C(=O)O)cc1	-20
COc1ccc(OCC(=O)Nc2sc3c(c2C#N)CCC3)cc1	28
Cc1ccc([N+](=O)[O-])cc1NC(=O)CN(C)S(=O)(=O)c1cc(Cl)ccc1Cl	15
O=S(=O)(c1ccc(Cl)cc1)c1nc(-c2ccc(F)cc2)oc1NCc1cccnc1	16
Cc1noc(C)c1S(=O)(=O)Nc1ccc2c(c1)CC(=O)N([C@@H](C)CO)C[C@@H](C)[C@@H](CN(C)C)O2	18
C[C@H]1CN([C@@H](C)CO)C(=O)c2cccc(NS(C)(=O)=O)c2O[C@H]1CN(C)S(=O)(=O)c1ccc(Cl)cc1	1
CS(=O)(=O)Nc1ccc(S(=O)(=O)NCC2CCCO2)cc1 (stereo unspecified)	-17
C[C@H](CO)N1C[C@H](C)[C@@H](CN(C)CC2CCCCC2)Oc2c(NC(=O)c3cnccn3)cccc2C1=O	6
C[C@@H]1CCCCO[C@H](CN(C)C(=O)Nc2ccc3c(c2)OCO3)[C@@H](C)CN([C@H](C)CO)C(=O)c2cc(NC(=O)Nc3ccc4c(c3)OCO4)ccc2O1	-5
Cc1cc(=O)[nH]c(SCC(=O)c2cc(C(C)(C)C)c(O)c(C(C)(C)C)c2)n1	17
c1ccc(OCc2nn3c(Cn4cnc5ccccc54)nnc3s2)cc1	2
COC(=O)c1cc(O)cc(O)c1C(=O)c1c(O)c(Cl)c(C)c(Cl)c1OC	7
CCOC(=O)c1sc(SC)c2c1CCc1conc1-2	28
O=C(CC(C(=O)O)N1CCNCC1)Nc1cccc(Cl)c1 (stereo unspecified)	9
C[C@@H]1CN([C@H](C)CO)C(=O)c2cc(NC(=O)Cn3cnnn3)ccc2O[C@H]1CN(C)Cc1ccncc1	-21
C[C@H](CO)N1C[C@H](C)[C@@H](CN(C)S(C)(=O)=O)Oc2ccc(NS(=O)(=O)c3ccc(F)cc3)cc2C1=O	-6
CC(C)CCNC(=O)Oc1ccccc1	22
Cc1noc(C)c1S(=O)(=O)Nc1cccc2c1O[C@@H](CN(C)S(=O)(=O)c1ccc(F)cc1)[C@@H](C)CN([C@H](C)CO)C2=O	28
CC(C)NC(=O)Nc1ccc2c(c1)CC(=O)N([C@H](C)CO)C[C@H](C)[C@H](CN(C)Cc1ccccc1)O2	4
C[C@H]1CN([C@@H](C)CO)C(=O)c2cccc(NS(=O)(=O)c3cn(C)cn3)c2O[C@H]1CN(C)S(=O)(=O)c1cn(C)cn1	12

The last 2 compounds of the part before come first, to join the parts:
SMILES	NOMO-1 viab
CC(C)NC(=O)Nc1ccc2c(c1)CC(=O)N([C@H](C)CO)C[C@H](C)[C@H](CN(C)Cc1ccccc1)O2	4
C[C@H]1CN([C@@H](C)CO)C(=O)c2cccc(NS(=O)(=O)c3cn(C)cn3)c2O[C@H]1CN(C)S(=O)(=O)c1cn(C)cn1	12
Cc1ccc(S(=O)(=O)Nc2cccc3c2O[C@@H](CN(C)Cc2ccc(Cl)c(Cl)c2)[C@@H](C)CN([C@H](C)CO)C3=O)cc1	119*
COc1ccccc1NC(=O)CCC(=O)O	4
C[C@H](CO)N1C[C@H](C)[C@@H](CN(C)C(=O)NC2CCCCC2)Oc2c(NC(=O)C3CCCCC3)cccc2C1=O	-18
COc1ccc(NC(=O)N(C)C[C@H]2Oc3ccc(NS(=O)(=O)c4ccc(Cl)cc4)cc3C(=O)N([C@H](C)CO)C[C@@H]2C)cc1	-15
COC(=O)c1ccccc1NC(=O)CN(c1ccc2c(c1)OCCO2)S(C)(=O)=O	-1
O=C(CNC(=O)c1ccccc1F)NCc1ccco1	-2
C[C@@H]1CN([C@@H](C)CO)C(=O)c2cccc(NC(=O)C3CCOCC3)c2O[C@@H]1CN(C)Cc1ccncc1	-2
COc1ccc(OC)c(NS(=O)(=O)c2cccc3cccnc23)c1	13
c1csc(-c2nnc(N3CCCCCC3)c3ccccc23)c1	10
Cc1ccc(S(=O)(=O)Nc2ccc3c(c2)CC(=O)N([C@@H](C)CO)C[C@H](C)[C@@H](CN(C)Cc2ccccc2)O3)cc1	91*

3 entries already listed, ordered by SMILES length, high to low.
SMILES	NOMO-1 viab
COc1ccc(OC)c(NS(=O)(=O)c2cccc3cccnc23)c1	13
O=C(CNC(=O)c1ccccc1F)NCc1ccco1	-2
COc1ccccc1NC(=O)CCC(=O)O	4

Further compounds
SMILES	NOMO-1 viab
COc1ccc(NC(=O)N(C)C[C@H]2Oc3ccc(NC(=O)C4CC4)cc3C(=O)N([C@@H](C)CO)C[C@H]2C)cc1	5
CC(C)NC(=O)N(C)C[C@H]1Oc2c(cccc2N(C)C)C(=O)N([C@@H](C)CO)C[C@@H]1C	5
COc1ccccc1C(=O)NCCCn1cc(Br)c(C)n1	-6
CSc1cccc(NC(=O)CNS(=O)(=O)c2c(C)cc(C)cc2C)c1	10
C=CCN1C(=O)C(O)(CC(=O)c2ccc(C)o2)c2ccccc21 (stereo unspecified)	27
C[C@@H]1CN([C@@H](C)CO)C(=O)c2cccc(NC(=O)Nc3ccc(F)cc3)c2O[C@H]1CN(C)S(=O)(=O)c1ccc(Cl)cc1	24
CCOC(=O)c1c(CN2CCCCC2)n(-c2ccccc2)c2cc(Br)c(OC)cc12	40
C[C@@H]1CN([C@H](C)CO)C(=O)c2cc(NC(=O)Nc3ccccc3)ccc2O[C@H]1CN(C)C	-3
CCC[C@@H](O)[C@H](O)[C@@H]1CC(OC)=CC(=O)O1	1
C[C@@H]1CCCCO[C@@H](CN(C)C(=O)Cc2ccccc2)[C@@H](C)CN([C@H](C)CO)C(=O)c2cc(NC(=O)c3ccncc3)ccc2O1	2

Some of the entries above, set out differently.
mol | NOMO-1 viab
C[C@@H]1CN([C@@H](C)CO)C(=O)c2cc(NC(=O)CCC(F)(F)F)ccc2O[C@@H]1CN(C)Cc1ccc(Oc2ccccc2)cc1 | 66
C[C@@H]1CCCCO[C@H](CN(C)C(=O)Cc2ccccc2)[C@@H](C)CN([C@H](C)CO)C(=O)c2cc(NC(=O)Cc3ccccc3)ccc2O1 | 36

(cont.)
SMILES	NOMO-1 viab
C=C1CC[C@@H]2[C@](C)(CO)[C@H](O)CC[C@@]2(C)[C@@H]1CC(O)C1=CCOC1=O (stereo partly specified)	106*
Oc1c(Cl)cc(Cl)cc1C1Nc2cc(C(F)(F)F)ccc2-n2cccc21 (stereo unspecified)	114*
CCc1cc2c(=O)c(-c3nc(C)cs3)c(CCC(=O)O)oc2cc1O	27
C[C@H]1CN([C@@H](C)CO)C(=O)Cc2cc(NS(=O)(=O)c3cn(C)cn3)ccc2O[C@@H]1CN(C)S(C)(=O)=O	-2
C[C@@H]1CN([C@H](C)CO)C(=O)Cc2cc(NS(C)(=O)=O)ccc2O[C@H]1CN(C)Cc1ccncc1	26
C[C@@H]1CN([C@@H](C)CO)C(=O)c2cc(NS(=O)(=O)c3ccc(F)cc3)ccc2O[C@@H]1CN(C)C(=O)NC1CCCCC1	9
COc1ccc(CN2C(=O)c3cccc4cccc(c34)C2=O)cc1S(=O)(=O)N1CCCCCC1	45
COc1ccc(NC(=O)Nc2ccc3c(c2)CC(=O)N([C@H](C)CO)C[C@H](C)[C@H](CN(C)C)O3)cc1	1
COC(=O)c1c(N)n(CCc2ccccc2)c2nc3ccccc3nc12	32
C[C@H](CO)N1C[C@H](C)[C@@H](CN(C)Cc2ccccc2)Oc2c(NS(=O)(=O)c3cn(C)cn3)cccc2C1=O	13
CNC[C@@H]1OCCCC[C@@H](C)Oc2ccc(NC(=O)Nc3c(C)noc3C)cc2C(=O)N([C@H](C)CO)C[C@@H]1C	29
COc1ccc(NC(=O)N(C)C[C@@H]2Oc3c(NS(=O)(=O)c4cccs4)cccc3C(=O)N([C@@H](C)CO)C[C@H]2C)cc1	-9
C[C@H](CO)N1C[C@H](C)[C@@H](CN(C)C(=O)Nc2cccc3ccccc23)Oc2ccc(NS(=O)(=O)c3ccc(F)cc3)cc2C1=O	-4
